Screening results from PubChem.
AID504770 – growth inhibitors of E. coli YBA685 in a screen for V. cholerae RctB (chromosome II replication) inhibitors; E. coli YBA685 rctB-dependent plasmid, OD600 growth, 3 h; stronger effect = lower value; AID 504770; z-score (concentration not given with the values); hit rate 0.27% among 130,000;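 active means z-score under -2 on both plates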;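 further: wells of about 30 µL received 100 nL stock; score is relative to mean and SD of the test wells; the first replicate is given; strong numbers were not always called active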
CapD inh – blocks the Bacillus anthracis CapD enzyme | purified CapD enzyme, fluorescence intensity read-out; stronger effect = lower value; some hits fall short of the stated cut | z-score (test concentration not listed) | hit rate 0.23% among 140,000;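 active means z-score under -4 in either of two replicates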;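 further: stock transfer was 100 nL into about 40 µL; score is relative to mean and spread of the plate; one replicate is shown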
* marks the source's active call; other numbers are inactive results; . = not tested or not shown.

SMILES	AID504770	CapD inh
O=C(CN(c1ccc(I)cc1)S(=O)(=O)c1ccccc1)Nc1cccnc1	-0.95	-0.17
O=C(c1[nH]nc2c1CCc1ccccc1-2)N1CCCC1	-0.15	1
NCCCNC(=O)c1cc2ccccc2[nH]1	0.65	2.6
O=c1ccc2ccc(OCc3ccccc3F)cc2o1	0.1	11
c1ccc(C2CCC(N3CCNCC3)CC2)cc1 (centres undefined)	-1.6	.
O=C(O/N=C1\CCS(=O)(=O)c2sccc21)c1ccc(Cl)c(Cl)c1	.	-0.35
O=C1CCCC(O)=C1C=Nc1ccc2c(c1)oc1ccccc12	-0.65	.
CCOC(=O)C1CCN(C(=O)c2c[nH]c3ccc(S(=O)(=O)N(C)c4cc(C)ccc4C)cc3c2=O)CC1	.	2.2
CC(C)c1ccccc1NC(=O)CSc1nnc(-c2cccs2)n1CC1CCCO1 (centres undefined)	0.5	.
C=CCn1c(SCC(=O)Nc2ccc(S(N)(=O)=O)cc2)nnc1-c1ccco1	-0.35	0.15
CC[N+]12CCC(CC1)C(C(O)(c1ccccc1)c1ccccc1)C2 (centres undefined)	0.25	-1.7
O=C(Cc1ccc2c(c1)OCCO2)Nc1ccccc1N1CCOCC1	-0.75	.
N#CCC(=O)N(Cc1ccccc1)C(=O)Nc1cccc(F)c1	-0.7	0.42
Oc1c(-c2ncc(-c3ccc(Cl)cc3)o2)sc2ncccc12	-1.8	.
CCCCCn1c(SCC(=O)N2CCC(C(=O)O)CC2)nc2ccccc21	0.55	.
COc1ccc(NC(=O)C2C3CCCC2C3c2ccccc2)cc1 (centres undefined)	.	3.4
Cc1ccc(-c2noc(C3CCN(C(=O)c4cccc(C(F)(F)F)c4)CC3)n2)cc1	.	-0.41
COc1cc(C=Nc2ccccc2C(N)=O)ccc1O	-0.65	50
O=C(/C=C/c1cccs1)NC1CCN(Cc2ccccc2)CC1	-1.2	-0.34
Cn1cc(NC(=O)N2CCCCC2)c2ccccc2c1=O	-1.1	26
Cc1ccc(-c2cn3cccnc3n2)cc1NC(=O)Nc1ccccc1	-0.15	0.23
CN(C)Cc1c(O)ccc2c1O/C(=C\c1ccccc1)C2=O	1	.
O=C1CSC(=NC2CC2)N1Cc1cccs1	0	0.17
CCCN1CCC(N(C(=O)CCC(=O)NCc2cccnc2)C2CC2)CC1	.	-0.015
C=CCNc1ccc(C(=O)O)cc1	-0.35	.
(more compounds)
SMILES	AID504770	CapD inh
c1ccc(NCc2cccnc2)cc1	-0.9	.
Cc1ccc(OCC(O)CN2CCN(CCN3C(=O)c4cccc5cccc(c45)C3=O)CC2)c(C)c1 (centres undefined)	.	6.9
Cc1cc(/C=C(/C#N)C(=O)NC(C)C)c(C)n1-c1ccc2ccccc2c1	-0.6	1.1
CN=C1S/C(=C\c2ccc(Cl)cc2)C(=O)N1C	0.05	.
CCOC(=O)c1c(NC(=O)c2ccc(C)c([N+](=O)[O-])c2)sc(C(=O)Nc2ccccc2F)c1C	.	-0.18
O=c1sc(-c2ccccc2)nc(O)c1Cc1ccccc1	-0.25	-0.015
CCOc1ccc(/C=N/n2nnnc2N)cc1OCC	-2.9	.
COC(=O)c1ccc(NC(=O)c2cc3cc([N+](=O)[O-])ccc3s2)cc1	.	0.02
CCCCNC(=O)Cn1nc(Cc2ccncc2)c2ccccc2c1=O	0.05	-0.4
CC1(C)CC(=O)C(C(C2=C(O)CC(C)(C)CC2=O)c2ccc(Cl)cc2Cl)C(=O)C1 (centres undefined)	.	-0.44
O=C(CSc1nncn1-c1ccccc1)NC1CC1	0.1	.
Cc1ccsc1CNC(C)(C)CO	-0.6	64
Cc1ccc(C(=O)NCC2OCCc3ccccc32)cc1 (centres undefined)	-1	-0.7
O=C(CSc1nc2cc(C(=O)NCC3CCCO3)ccc2c(=O)n1Cc1ccco1)c1ccc(Br)cc1 (centres undefined)	.	-0.86
N#Cc1c(NC(=O)c2ccc3ncsc3c2)sc2c1CCC2	0.3	.
CC(=O)N(C)c1ccc(Cl)cc1Cl	-0.95	0.21
Cc1cccc(N2CC(C(=O)OCn3nnc4ccccc4c3=O)CC2=O)c1C (centres undefined)	-1.6	.
Cn1cccc1CC(=O)N1N=CCC1(O)C(F)(F)F (centres undefined)	-0.9	.
COCCN(C(=O)CCC(=O)NCc1cccnc1)C1CCN(C)CC1	.	-0.09
Cc1ccc(C2=N/C(=C\c3ccc(-c4cccc([N+](=O)[O-])c4)o3)C(=O)O2)cc1[N+](=O)[O-]	.	0.14
COc1ccc(NC(=O)c2cc(NC(=O)C3CCCCC3C(=O)O)ccc2N2CCOCC2)cc1 (centres undefined)	-1.1	-0.35
CCC(Sc1nc2sc(C(=O)OC)c(C)c2c(=O)n1N)C(=O)NCC1CCCO1 (centres undefined)	-1.4	1.1
COc1ccc(CCNC(=O)c2nc3ccccc3c(=O)[nH]2)cc1OC	0.7	0.75
O=C(c1cccc(Br)c1)N1CCc2c([nH]c3ccccc23)C1c1ccc(Cl)cc1 (centres undefined)	.	0.12
Cc1cnc(NC(=O)CCCSc2ccccc2)s1	-0.05	.
Other structures.
SMILES	AID504770	CapD inh
COCCCNc1ccc2c(C(F)(F)F)cc(C(F)(F)F)nc2n1	.	7.6
Cn1ncc(C(N)=O)c1[N+](=O)[O-]	.	-0.26
Cc1c(C(=O)c2ccccc2)oc2ccc3ccccc3c12	.	0.04
CCOC(=O)c1csc(NC(=O)C(C)(C)C)n1	-0.2	0.08
CCOC(=O)c1c(C)oc2c(Cl)cc(NS(=O)(=O)c3ccc(Br)cc3)cc12	.	-0.02
S=C(c1ccc(N2CCCC2)c(Br)c1)N1CCOCC1	-0.5	-1.6
O=C(N/N=C/c1ccc(Oc2ccccc2)cc1)C1C2CCCCC21 (centres undefined)	.	-0.095
COC(=O)c1sccc1-n1cc(C(=O)c2ccc(-c3ccccc3)cc2)nn1	.	-0.57
C=CCOC(=O)CCN1C(=O)/C(=C/c2ccccc2)SC1=S	-0.65	0.68
CC1CCCCN1c1ncccc1C(=O)N1CCCC1 (centres undefined)	1.6	.
O=C(O)c1ccc2ncsc2c1	-0.35	4
CCOCCn1ccc2c(OCC(N)=O)cccc2c1=O	-0.55	.
COC(=O)C1C2c3ccccc3OC1(C)N=c1s/c(=C/c3ccc(OCc4ccccc4F)cc3)c(=O)n12 (centres undefined)	.	-0.92
CC(=O)Nc1ccc(NC(=O)CSc2ncnc3ccccc23)cc1	0.5	0.95
Cc1[nH][nH]c(=O)c1C=Nc1ccc(O)c(C(=O)O)c1	-0.6	.
CCCSc1nnc(-c2cccc(S(=O)(=O)N(C)C)c2)n1-c1cccc(OC)c1	-0.65	.
CCOc1ccc(S(=O)(=O)N/N=C(\C)c2ccc3c(c2)OCO3)cc1	-0.3	.
CC(C)(C)c1ccc(-c2nc(-c3ccc(C(F)(F)F)nc3)ncc2-c2nc3ccccc3o2)cc1	.	-0.28
CC(=O)N=C1S/C(=C\c2cccc(F)c2)C(=O)N1c1ccc(C)c(C)c1	.	0.23
O=C(CCCN1C(=O)c2ccccc2C1=O)Nc1nccs1	0.05	-0.01
O=C1CC(c2ccco2)CC(O)=C1C=NCCN1CCN(C(=O)Nc2ccc(Cl)cc2)CC1 (centres undefined)	-0.1	0.05
N#CCC(=O)Nc1ccco1	-0.65	-0.68
CC(C)(C)c1ccc(S(=O)(=O)N2CCC(O)(c3ccc(Cl)cc3)CC2)cc1	-0.45	-0.15
CCOc1ccc2c(c1)C(=C1SC(C(=O)OC)=C(C(=O)OC)S1)C(=S)C(C)(C)N2C(=O)COc1ccc(F)cc1	.	-0.18
COCCn1c(SC)nc2c(c1=O)SCC2	0	.

In the list so far, six have an NH in an aromatic ring:
SMILES	AID504770	CapD inh
O=C(c1[nH]nc2c1CCc1ccccc1-2)N1CCCC1	-0.15	1
NCCCNC(=O)c1cc2ccccc2[nH]1	0.65	2.6
CCOC(=O)C1CCN(C(=O)c2c[nH]c3ccc(S(=O)(=O)N(C)c4cc(C)ccc4C)cc3c2=O)CC1	.	2.2
COc1ccc(CCNC(=O)c2nc3ccccc3c(=O)[nH]2)cc1OC	0.7	0.75
O=C(c1cccc(Br)c1)N1CCc2c([nH]c3ccccc23)C1c1ccc(Cl)cc1 (centres undefined)	.	0.12
Cc1[nH][nH]c(=O)c1C=Nc1ccc(O)c(C(=O)O)c1	-0.6	.

Following part
SMILES	AID504770	CapD inh
Cc1ccccc1N1C(=O)C(Oc2ccc(Cl)cc2)C1CNCCc1ccccc1 (centres undefined)	0.5	0.03
C=CCc1cc(/C=C2\C(=O)NC(=O)N(c3ccc(OC)cc3)C2=O)cc(OC)c1O	.	-0.43
COC(=O)C1=C(N)OC2=C(C(=O)CC(C)(C)C2)C1c1ccc(C(=O)OC)cc1 (centres undefined)	-0.4	-0.07
CCOC(=O)Cn1cnc2c(nnn2Cc2ccccc2F)c1=O	1.5	-0.24
COc1ccccc1NC(=O)Cn1cnc2sc(C(=O)Nc3cc(Cl)ccc3OC)c(C)c2c1=O	.	0.35
COc1ccc2oc(=O)c(-c3nc4ccccc4[nH]3)cc2c1	1.5	1.5
CCC(C)(C(=O)NC1CCCCC1)N(Cc1ccco1)C(=O)Cc1cccs1 (centres undefined)	1.1	-0.1
Cn1c(SCC(=O)N2c3ccccc3Sc3ccccc32)nnc1-c1ccco1	-0.5	.
CCOC(=O)N1CCN(C(=O)c2ccc(N(Cc3ccccc3)S(C)(=O)=O)cc2)CC1	-1.2	0.38
CC(C)(C)NC(=S)N/N=C1/CCCc2occc21	0.7	0.2
Cn1c(Cc2ccccc2)nn(C2CC(=O)C3OCC2O3)c1=S (centres undefined)	.	0.2
Nc1c(C(=O)c2cccs2)sc2nc3c(cc12)CCCC3	-0.55	.
Cc1ccc(Cn2ncn3c(cc4ccccc43)c2=O)cc1	-0.35	31
Fc1ccc(-c2cnc(CN3CCCCC3c3nc4ccccc4s3)o2)cc1 (centres undefined)	-0.15	.
Cc1sc(-c2ccccc2)nc1CC(=O)NNC(=O)Cc1ccsc1	.	0.45
CCCC1=C(C(=O)OC)C(c2ccc(C(=O)OC)cc2)NC(=O)N1C (centres undefined)	-1.9	.
O=C(NNc1nc(-c2ccccc2)cs1)c1cccs1	-0.25	0.27
Fc1ccc(/C=N/c2nc3ccccc3s2)cc1	0.55	0.14
O=C(NN1CC(=O)N(Cc2ccco2)C1=O)C(c1ccccc1)c1ccccc1	-0.55	.
Clc1ccc(Sc2ncnc3ccsc23)cc1	.	-0.3
S=C(Nc1ccccc1Cl)N1CCCCC1	-1	-0.005
CCC1CCCCN1C(=O)c1cc(C)no1 (centres undefined)	0	-0.37
CSc1nn(-c2ccccc2)cc1C(=O)Nc1ccc(Cl)cc1	1.6	2
O=C(O)C1C2CCC(O2)C1C(=O)N1CCN(c2ccccc2)CC1 (centres undefined)	-0.8	-0.09
CSc1nc(-c2ccccc2)nc2c1CCCC2	-0.7	-0.37
(continued)
SMILES	AID504770	CapD inh
CC1(C)C2CC=C(COCC(O)CNCC3COc4ccccc4O3)C1C2 (centres undefined)	0.05	.
COc1ccc(C2CC(=O)Nc3ncnn32)cc1 (centres undefined)	-0.2	-0.29
COc1cc(C2C(C(=O)OCCOc3ccccc3)=C(C)NC3=C2C(=O)CC(C)(C)C3)cc(Cl)c1O (centres undefined)	.	2.2
CN(C)c1ccc(/C=C/C(=O)/C=C/c2ccc3c(c2)OCO3)cc1	0.9	17
CC(C)(C)OC(=O)N1CCCN(C(=S)Nc2cccnc2)CC1	.	0.31
O=C(N/N=C/c1cc2ccccc2c2ccccc12)c1ccc(OC(F)(F)F)cc1	.	-0.24
O=C(NCCC1=CCCCC1)Nc1c[nH]c2ccccc12	1.1	.
N#CCC12CC3CC(CC(C3)C1)C2	0.2	0.32
Cc1cc(C)c(NC(=O)C(C)OC(=O)c2ccccc2O)c(C)c1 (centres undefined)	0.1	.
CN(C)c1ccc(/C=N/NC(=O)CCc2ccc(O)cc2)c(Cl)c1	.	55
O=S(=O)(c1cc(Cl)ccc1Cl)n1nnc2ccccc21	.	-0.27
Cc1cc(-c2ccc(C)c(S(=O)(=O)NCc3cccnc3)c2)on1	-0.2	-0.075
COC(=O)Cc1c(C)c2ccc(OCC(=O)c3ccc(N4CCCC4)cc3)cc2oc1=O	-0.6	2.7
CC1(C)Cc2cccc(C(=O)N3CCC(c4c[nH]c5ccccc45)CC3)c2O1	-0.5	0.66
O=C(CCC(=O)N(C1CC1)C1CCN(Cc2ccccc2)CC1)NCc1ccncc1	.	-0.48
O=C(O)CCNC(=O)NC12CC3CC(CC(C3)C1)C2	-0.25	-0.14
CCOc1cc(C2C(C(=O)N3CCCCC3)=C(C)NC3=C2C(=O)CC(C)(C)C3)cc(Br)c1OC (centres undefined)	.	2.8
CCCOc1ccc2nc(NC(=O)OC)sc2c1	.	0.17
CCOC(=O)C(Cc1c[nH]c2ccccc12)NC(=O)COc1ccc(Br)cc1 (centres undefined)	.	0.035
O=C1CNC(c2ccc(Cl)cc2Cl)N1O (centres undefined)	2.2	0.04
Cc1[nH]c2ccccc2c1CCNCc1cccs1	-0.4	0.32
Cc1csc2ncnc(NCCc3ccc(Cl)cc3)c12	.	0.005
CCOc1ccc(N/C=C2/CCCC(C)C2=O)cc1 (centres undefined)	0.45	3.8
O=C(NCCCN1CCC(Cc2ccccc2)CC1)c1noc2ncnc(N3CCCC3)c12	0.15	0.67
CCc1cccc2c(C(C(=O)c3ccccc3)c3c[nH]c4c(CC)cccc34)c[nH]c12	0.55	0.29

Rewritten in markdown: part of the list above.
| SMILES | AID504770 | CapD inh |
| --- | --- | --- |
| CCc1cccc2c(C(C(=O)c3ccccc3)c3c[nH]c4c(CC)cccc34)c[nH]c12 | 0.55 | 0.29 |
| O=C1CNC(c2ccc(Cl)cc2Cl)N1O (centres undefined) | 2.2 | 0.04 |
| CCOc1ccc(N/C=C2/CCCC(C)C2=O)cc1 (centres undefined) | 0.45 | 3.8 |
| O=C(N/N=C/c1cc2ccccc2c2ccccc12)c1ccc(OC(F)(F)F)cc1 | . | -0.24 |
| Cc1cc(C)c(NC(=O)C(C)OC(=O)c2ccccc2O)c(C)c1 (centres undefined) | 0.1 | . |

A portion of the library, so the mix of outcomes need not match the whole.
